Bead autofluor: counter-screen for toxin protease inhibitors: compound fluorescence; fluorescence intensity (no concentration beside the values); AID 624483; 360,000 tested, 3.1% active; compound autofluorescence counterscreen, microsphere flow cytometry; hits give high values;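 active = at least 3 SD above the mean of all compounds, about 16000 in these data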;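 also: 100 nL of 1 mM stock went into each well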
* = called active by the depositor.

SMILES	Bead autofluor
OC(c1cccc(F)c1)c1ncc(-c2ccc(C(F)(F)F)cc2)[nH]1 (centres undefined)	3822
NC(=O)c1csc(-c2ccc(CO)o2)n1	4248
CCCc1nc2ccc(C(=O)OC)cn2c1Cc1ccc(C)cc1	4979
O=C1NC(Cc2ccc(O)cc2)c2nc3ccc(Br)cc3c(=O)n2-c2ncccc21 (centres undefined)	3630
CC1(Cc2ccccc2C#N)C(=O)Nc2ccc(-c3ccc4[nH]ccc4c3)cc21 (centres undefined)	3218
CSc1ccc(OC2(C)CCN(Cc3ccc(C(C)C)cc3)C2)cc1 (centres undefined)	4119
O=S1(=O)CC(N2CCCCC2)CN1Cc1ccc(F)cc1 (centres undefined)	5289
CC(C)C[C@@H]1COc2cc(N3CCSCC3)ccc2S(=O)(=O)N1	4517
O=C(C(=NNc1ccccc1)C(=S)Nc1ccccc1)c1ccccc1	6299
COc1cc(C(=O)N2CC(=O)Nc3ccccc32)cc(OC)c1OC	4028
CCOc1ccc2nc(S(=O)(=O)NC(=O)C3(C)CCN3C(=O)c3c(C)noc3C)sc2c1 (centres undefined)	3955
Cc1sc2ncnc(SCC(=O)NC3CCS(=O)(=O)C3)c2c1C (centres undefined)	4363
COc1ccc(CC(N)c2csc(NC(=O)NCc3ccccc3)n2)cc1 (centres undefined)	3866
O=C1NC(Cc2ccccc2)c2nc3ccccc3c(=O)n2-c2ncccc21 (centres undefined)	3561
COc1ccc(C(CNC(=O)c2ccc(OCc3csc(C)n3)cc2)N2CCCC2)cc1 (centres undefined)	12075
CNC(=O)c1ccc2cc(OC)c(OC)cc2c1	3788
CSCCC(C(=O)Nc1c(C)cccc1C)N1CCC(Cc2ccccc2)CC1 (centres undefined)	4469
O=C(NCc1ccco1)c1ccc2sc([C@@H]3O[C@H](CO)[C@H](O)[C@H](O)[C@H]3O)nc2c1	3504
COc1cccc(CNc2nc3cc(-c4cccc(C(F)(F)F)c4)sc3c(=O)n2C)c1	3661
Cc1cccc(NC(=O)CSCC(=O)Nc2ccccc2C(=O)N2CCCCC2)c1	3833
C[C@H]1CCCCO[C@H](CN(C)C(=O)Nc2ccc(F)cc2)[C@@H](C)CN([C@@H](C)CO)C(=O)c2cc(NC(=O)Nc3ccc4c(c3)OCO4)ccc2O1	3557
CCCCn1nnnc1C(c1ccc(OC)cc1)N1CCC2(CC1)C(=O)NCN2c1ccccc1 (centres undefined)	4872
COc1c(C)cc(C(O)c2ncc(-c3cccc(C(F)(F)F)c3)[nH]2)cc1C (centres undefined)	2878
CCCCC[C@H](C)N1C[C@H](COCc2ccccc2)Oc2cc(N3CC[C@H](N(C)C)C3)ccc2S1(=O)=O	5587
OC(c1ccc(F)cc1)c1nc(-c2ccc(F)c(Cl)c2)cs1 (centres undefined)	3713
C[C@@H]1CN([C@H](C)CO)C(=O)CCCn2cc(nn2)CO[C@H]1CN(C)C(=O)c1ccc(N2CCN(C)CC2)cc1	4921
COC(=O)[C@@]1(Cc2ccc(F)cc2)[C@H]2c3cc(C(=O)N4CCCC4)n(C)c3C[C@H]2CN1C(=O)c1ccccc1	4468
Cc1cccc(-c2cnc(C(O)c3ccc4ccccc4c3)[nH]2)c1 (centres undefined)	3609
Clc1ccccc1Nc1nc(NCc2ccccc2)nc2ccsc12	4066
CCCNC(=O)C1(C)CCCN(C(=O)c2cccc(C#N)c2)C1 (centres undefined)	3902

Molecules above that have a Cl atom (two):
SMILES	Bead autofluor
OC(c1ccc(F)cc1)c1nc(-c2ccc(F)c(Cl)c2)cs1 (centres undefined)	3713
Clc1ccccc1Nc1nc(NCc2ccccc2)nc2ccsc12	4066

Going on with the list:
SMILES	Bead autofluor
C[C@H](CO)N1C[C@H](C)[C@H](CN(C)S(=O)(=O)c2ccc(Cl)cc2)OCc2cnnn2CCCC1=O	3912
c1ccc2c(C(c3nnnn3-c3ccc4c(c3)OCCO4)N3CCOCC3)ccnc2c1 (centres undefined)	5912
CC(C)C[C@@H]1CN(CCCC[C@H]2CNC(=O)C(=O)N2CCC2CCCCC2)C(=O)C(=O)N1CCc1ccc(O)cc1	5626
Cc1ccc2c(c1)CO[C@@]21O[C@H](CCO)C[C@H](O)[C@H]1O	3374
CC(=O)N1c2ccc(S(=O)(=O)NCCC(=O)Nc3ccc(Cl)cc3)cc2CC1C (centres undefined)	3571
COc1ccc(C(C)(O)c2nc(-c3cnc4ccccc4c3)cs2)cc1 (centres undefined)	3666
Cc1ccc(-c2ccc(CN3C(C(C)C)C(=O)N(Cc4cn(CCC5OCCCO5)nn4)CCS3(=O)=O)cc2)cc1 (centres undefined)	2949
O=C1CC[C@@H](C(=O)N2CSC[C@@H]2C(=O)Nc2cccc(C(F)(F)F)c2)N1	3554
COc1ccccc1-c1ccccc1C1=CC(=O)CC(C)(C)C1=O	3835
COc1cccc(CNC(=O)[C@@H]2CCCN2C(=O)[C@@H]2CCCN2C(=O)c2ccccc2)c1	6443
Cn1ccc2c(N3c4ccccc4CCc4ccccc43)cc3c(c21)C1CCC3O1 (centres undefined)	5998
Cc1ccc(CNC(=O)C2(C)CCN2C(=O)Cc2ccc(-c3ccccc3)cc2)cc1 (centres undefined)	3517
O=C(NCc1ccccc1)C1Cc2c(-c3ccc(Cl)cc3)ccnc2O1 (centres undefined)	3553
CCOc1cc(OCC)cc(C(=O)N2CCC[C@H]2C(=O)N2CCC[C@H]2C(=O)NCc2ccccn2)c1	5357
COc1ccc(/C=C(/NC(=O)c2ccco2)C(=O)NCc2ccco2)cc1	3519
COc1ccccc1-c1ncn(Cc2cccc(-c3ccccc3)c2)c1CC(C)C	6554
O=C(NCC1CC1)c1csc(COCCO)n1	3026
Cc1ccc(S(=O)(=O)N2CCN(C(=O)c3ccc(-n4cncn4)c([N+](=O)[O-])c3)CC2)c(C)c1	3810
COc1cc(CN2C[C@@H](CO)O[C@@H](n3cnc4c(NC5CCCC5)ncnc43)C2)cc(OC)c1OC	2862
CCOC(=O)[C@]12CCC=C1N(Cc1cccc3ccccc13)C(=O)[C@H](CC(=O)NCC1CCCCC1)C2	6443

Sorted by formula weight (rising): part of the list above
SMILES	Bead autofluor
O=C(NCC1CC1)c1csc(COCCO)n1	3026
Cn1ccc2c(N3c4ccccc4CCc4ccccc43)cc3c(c21)C1CCC3O1 (centres undefined)	5998
Cc1ccc(CNC(=O)C2(C)CCN2C(=O)Cc2ccc(-c3ccccc3)cc2)cc1 (centres undefined)	3517

The list continues:
SMILES	Bead autofluor
CC(C)NC(=O)C1(C)CCN1C(=O)c1ccccc1 (centres undefined)	3319
COc1ccc(-c2nc3ccc(C)cn3c2Cc2cccc(F)c2)cc1OC	5431
Cc1ccc2cc(NC(=O)C3(C)CCN(C)C3)ccc2n1 (centres undefined)	3849
O=C(Nc1ccccc1)c1cc(C2CCCCN2C(=O)CCCc2ccccc2)on1 (centres undefined)	2871
OC[C@@H]1CN(CCN2CCOCC2)C[C@H](n2cnc3c(NC4CCCC4)ncnc32)O1	2784
O=C(C[C@H]1C[C@@H]2c3cc(NC(=O)C4CCC4)ccc3O[C@@H]2[C@H](CO)O1)NC1CCCCC1	2983
CCCN(CC1CC1)c1cc2c(c3c1ccn3C)C1CCC2O1 (centres undefined)	5635
Cc1cccc(NC(=O)COC(=O)c2nn(-c3ccccc3C(F)(F)F)cc2O)c1C	4055
CC(=O)Nc1cccc(-c2ccnc3c2CC(C)(C(=O)Nc2cccc(NS(C)(=O)=O)c2)O3)c1 (centres undefined)	2894
COc1ccc(-c2cc3nc(NCc4ccc(N(C)C)cc4)n(C)c(=O)c3s2)cc1OC	3635

Reformatted as a markdown table: entries from further up.
| Compound | Bead autofluor |
| --- | --- |
| COC(=O)[C@@]1(Cc2ccc(F)cc2)[C@H]2c3cc(C(=O)N4CCCC4)n(C)c3C[C@H]2CN1C(=O)c1ccccc1 | 4468 |
| Cc1cccc(-c2cnc(C(O)c3ccc4ccccc4c3)[nH]2)c1 (centres undefined) | 3609 |
| Clc1ccccc1Nc1nc(NCc2ccccc2)nc2ccsc12 | 4066 |
| CCCNC(=O)C1(C)CCCN(C(=O)c2cccc(C#N)c2)C1 (centres undefined) | 3902 |

Carrying on.
SMILES	Bead autofluor
O=C1NC[C@H](CCCCN2CCN(Cc3ccccc3)C(=O)C2=O)N(CCc2ccccc2)C1=O	4668
C[C@@H]1CN([C@@H](C)CO)C(=O)CCCn2nncc2CO[C@@H]1CN(C)S(=O)(=O)c1ccc(Oc2ccccc2)nc1	3227
c1ccc(COc2cccc(-c3cc4nc(NCCc5ccncc5)ccn4n3)c2)cc1	2862
CCCCC[C@@H](C)N1C[C@@H](COCc2ccccc2)Oc2cc(N3CC[C@@H](N(C)C)C3)ccc2S1(=O)=O	4323
COc1ccc(C(O)c2ncc(-c3cccc(C(F)(F)F)c3)[nH]2)cc1 (centres undefined)	4120
CC(C)c1ccc(C2OC(CCc3ccccc3)Cc3[nH]c(=S)[nH]c(=O)c32)cc1 (centres undefined)	4326
CCC(CC)c1nnc(NC(=O)CSCc2c(C)noc2C)s1	2889
C[C@@H]1CCCCO[C@H](CN(C)Cc2ccc(Cl)c(Cl)c2)[C@@H](C)CN([C@H](C)CO)C(=O)c2cc(N(C)C)ccc2O1	3632
CC(C)(C)OC(=O)NCc1ccc(NC(=O)c2nc[nH]c2C(=O)Nc2cc(Br)ccc2F)cc1	5720
O=C1C(=Cc2ccccn2)CCc2ccccc21	2896
COc1ccc(C(=O)c2[nH]c(N)c(C(=O)NCCc3c[nH]c4ccccc34)c2-c2ccc(OC)c(OC)c2)cc1	6070
O=C(OCc1ccccc1)c1c(-c2ccccc2)oc2c1C(OCCO)CCC2 (centres undefined)	5249
O=C(NCCc1ccc(Cl)cc1)c1cc(S(=O)(=O)N2CCCC2)ccc1F	3487
CC(Oc1ccc(Br)cc1)C(=O)N(Cc1ccccc1)c1c(N)n(Cc2ccccc2)c(=O)[nH]c1=O (centres undefined)	3029
CC(C)CC(N)c1csc(Nc2ccc(S(C)(=O)=O)cc2)n1 (centres undefined)	3839
COc1ccccc1NC(=O)Nc1nc(C(N)CCc2ccccc2)cs1 (centres undefined)	2908
CNS(=O)(=O)c1ccc(CNC[C@H]2O[C@@H](n3cc(C)c(=O)[nH]c3=O)C[C@@H]2O)cc1	3522
O=C(O)c1ccc(-n2ncc(Cl)c(Cl)c2=O)cc1	2881
CCCC(=O)N1CCCC(c2cc(C(=O)NCc3ccccc3)no2)C1 (centres undefined)	3405
CN(Cc1cccc(-c2ccncc2)c1)C(=O)Oc1ccccc1Cl	5962
Cc1ccc(NC(=O)C2(C)CCN2Cc2ccccc2OC(F)F)cc1 (centres undefined)	3995
COc1ccccc1CNC(=O)C[C@@H]1C[C@H]2c3cc(NC(=O)c4ccc5c(c4)OCO5)ccc3O[C@H]2[C@@H](CO)O1	3731
CCCS(=O)(=O)NC(=O)C1(C)CCN(C(=O)Cc2ccc(OC)c(OC)c2)C1 (centres undefined)	3904
Cn1cc(Cc2ccc(C(=O)N3CCOCC3)cn2)c2ccccc21	3668
C[C@@H]1CCCCO[C@H](CN(C)C(=O)Cc2ccccc2)[C@@H](C)CN([C@H](C)CO)C(=O)c2cc(NC(=O)Nc3ccccc3)ccc2O1	3712
COC(=O)N1CCCCC1c1cc(C(=O)NCc2cccnc2)no1 (centres undefined)	3498
O=C(NCc1cccnc1)c1ccc2sc([C@@H]3O[C@H](CO)[C@H](O)[C@H](O)[C@H]3O)nc2c1	2969
Cc1nc(NC(=O)C(C)(C)C)sc1C(=O)Cn1cc(-c2ccc(C(C)(C)C)cc2)nn1	6285
CC(O)(c1ccc(F)c(F)c1)c1nc(-c2cnc3ccccc3c2)cs1 (centres undefined)	2930
CCN(CC)S(=O)(=O)c1cccc(NC(=O)COC(=O)c2[nH]c(C)c(C(C)=O)c2C)c1	4020
CS(=O)(=O)c1ccc(C2=C(CNC(=O)c3ccncc3)[C@H]3CC[C@@H](C2)N3Cc2ccccc2)cc1	4032
O=C1c2[nH]c3ccccc3c2CC1N1C(=O)c2ccccc2C1=O (centres undefined)	3647
CC(C)C1C(=O)N(Cc2cn(Cc3ccco3)nn2)CCS(=O)(=O)N1Cc1ccc(-c2ccc(Cl)cc2)cc1 (centres undefined)	3893
O=C1NC[C@@H](CCCCN2C[C@H](Cc3ccc(O)cc3)N(CCc3ccccc3)C(=O)C2=O)N(CCc2ccc(O)cc2)C1=O	6009
O=S1(=O)C[C@H](N2CCN(CC3CC3)CC2)[C@@H](COCc2ccccc2)N1	5935
COc1ccc(NC(=S)Nc2ccc(S(=O)(=O)N3CCCCC3)cc2)cc1	3587
O=c1[nH]c(=S)[nH]c2c1C(c1ccc(F)cc1)OC(CCC(F)(F)F)C2 (centres undefined)	5518
CCCCn1nnnc1C(CCc1ccccc1)N1CCC2(CC1)C(=O)NCN2c1ccccc1 (centres undefined)	5069
COc1ccc(CN2C(=O)C(CC(=O)NCCCCc3ccccc3)CC(C(=O)N(C(C)C)C(C)C)=C2C)cc1 (centres undefined)	3625
CCCS(=O)(=O)NC(=O)C1(C)CCCN(C(=O)c2nc(C)oc2C)C1 (centres undefined)	3777
CCCNC(=O)c1cc(C2CCCCN2S(=O)(=O)c2ccc(C#N)cc2)on1 (centres undefined)	3487
COc1ccc(Cc2nc3ccc(C(=O)N4CCC(C(N)=O)CC4)cc3o2)cc1	3371
COc1ccc(S(=O)(=O)N2CCOCC2)cc1NC(=O)c1ccc(SC)cc1OC	3803
Cn1c(=O)c2cc(NC(=S)NC3CCCCC3)ccc2n1-c1ccccc1	3444
S=C(NC1CCCCC1)N1CCC(C2C=NC=N2)CC1 (centres undefined)	5951
Cc1ccc(-c2cnc(C(O)c3ccc(Cl)cc3C)[nH]2)cc1 (centres undefined)	2970
O=C(Nc1ccc2c(c1)OCCO2)c1[nH]c(C(F)(F)F)nc1-c1ccccc1	5227

These rows are one share of the data (hit frequency here may not be typical).
